Bioassay records from PubChem BioAssay.
TRPML1 agonist: qHTS for Agonists of the Human Mucolipin Transient Receptor Potential 1 (TRPML1) | activation, % (no concentration beside the values) | TRPML1-expressing cells, Ca2+ dye fluorescence, FDSS; host cell line not named in the record; reference of the full effect not given here | actives 0.12% (n = 410,000) | AID 624414, 2012 | Mucolipin-1 (Homo sapiens), Q9GZU1; in the data active = activation above about 50%; inconclusive = about 30% to 50%; inactive = below about 30%; further: 0% is about no effect; the text of the record puts the active cut at 80%
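In this qHTS format, compounds were pin-transferred onto Ca8-dye-loaded TRPML1-DL cells induced with Tet overnight, and intracellular Ca2+ fluorescence was recorded kinetically for 110 s after a 10 s baseline. A subsequent 4uM final 54-4 (EC80) addition followed by a second 110 s read served as the antagonist phase.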
D2 PAM: Beta-Arrestin HTS for Positive Allosteric Modulators of the Human D2 Dopamine Receptor: Potentiators | D(2) dopamine receptor (Homo sapiens), P14416 | DiscoveRx D2 beta-arrestin cells, luminescence, 90 min; 100% = 57 uM dopamine signal | potentiation, % (concentration not given with the values) | actives 0.23% (n = 360,000) | AID 624464, 2012; active = potentiation of 50% or more; inconclusive = 30% to 50%; inactive = 30% or less;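 further: compound concentration not given in the record; tested on top of an EC20 dose of dopamine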
Target sequence (P14416 whole entry, looked up): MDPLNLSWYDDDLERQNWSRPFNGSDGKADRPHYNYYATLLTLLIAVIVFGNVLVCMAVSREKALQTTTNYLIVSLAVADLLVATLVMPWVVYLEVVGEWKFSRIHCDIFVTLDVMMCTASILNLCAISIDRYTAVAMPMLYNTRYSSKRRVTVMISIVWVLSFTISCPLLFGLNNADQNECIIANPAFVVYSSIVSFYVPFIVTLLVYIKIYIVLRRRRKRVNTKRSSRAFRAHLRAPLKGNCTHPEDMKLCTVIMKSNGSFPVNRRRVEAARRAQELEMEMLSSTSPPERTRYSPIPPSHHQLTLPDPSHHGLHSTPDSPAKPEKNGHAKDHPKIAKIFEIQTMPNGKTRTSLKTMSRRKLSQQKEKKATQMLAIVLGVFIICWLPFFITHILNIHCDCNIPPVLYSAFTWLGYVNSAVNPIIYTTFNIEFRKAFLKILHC
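PathHunter beta-arrestin assay in DiscoveRx D2 cells. Compounds were added with an EC20 of dopamine (50 nM final) for 90 min at 37 deg C. Luminescence was read 1 h after detection reagent, with 57 uM dopamine as the EC100 control.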
TRPML1 blocker: qHTS for Inhibitors of the Human Mucolipin Transient Receptor Potential 1 (TRPML1); Mucolipin-1 (Homo sapiens), Q9GZU1; TRPML1-inducible cells, Ca2+ dye fluorescence, FDSS; active compounds read low; inhibition of EC80 agonist-evoked calcium signal; activity change, negative = inhibition, % (test concentration not listed); actives 0.02% (n = 390,000); in the data active means activity change below about -50%; inconclusive means about -30% to -50%; inactive means above about -30%;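 further: stimulus is agonist 54-4 at its EC80 concentration; on the % scale 0 is the no-effect control and ±100 the full control effect; compound concentration not given in the record; the text of the record puts the active cut at -80%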
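TRPML1-DL cells, Tet-induced overnight (~16 h, 37 °C) at 1,500 cells/well, were loaded with Ca8 no-wash dye plus quencher for 45-90 min at room temperature. Compounds were pinned during FDSS kinetic reading; agonist 54-4 at EC80 (4 uM final) then added.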
D2 agonist: Beta-Arrestin HTS for Positive Allosteric Modulators of the Human D2 Dopamine Receptor: Agonists; D(2) dopamine receptor (Homo sapiens), P14416; DiscoveRx PathHunter D2 beta-arrestin, luminescence, 90 min; 100% = 57 uM dopamine signal; activation, % (no concentration beside the values); actives 0.084% (n = 360,000); AID 624465, 2012; in the data active = activation above about 40%; inconclusive = about 15% to 40%; inactive = below about 15%; further: compound concentration not given in the record; the text of the record calls up to 30% inactive
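Agonist mode: compounds alone added to overnight-plated D2 PathHunter cells for 90 min at 37 C, with 57 uM final dopamine (EC100) defining full response. Beta-arrestin recruitment detected by chemiluminescent reagent, read after 1 h at ambient temperature.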
Six1-Eya2 blk: qHTS Assay for Inhibitors of the Six1/Eya2 Interaction. AlphaScreen GST-Six1/His-Eya2 binding, biochemical; active compounds read low; control for the full effect not named in the record. Homeobox protein SIX1 (Homo sapiens) + Protein phosphatase EYA2 (Homo sapiens), …. actives 0.56% (n = 360,000). activity change, % (test concentration not listed). AID 651725, 2012; in the data active = activity change below about -65%; inconclusive = about -30% to -65%; inactive = above about -30%; further: on the % scale 0 is the no-effect control and ±100 the full control effect
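AlphaScreen luminescence read after one hour at 37 °C in darkness. Pin-transferred compounds met GST-Six1 and His-Eya2 protein (5X stock 250 nM/500 nM) plus glutathione donor and Ni-chelate acceptor beads (5X, 50 ug/mL).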
PINK1 modulator: A Quantitative High throughput Screen to Identify Chemical Modulators of PINK1 Expression. AID 624263, 2012. actives 0.2% (n = 410,000). PINK1 immunofluorescence, high-content cytometry, 24 h. Potency, µM (doses to about 76.6 µM), without a hit: at the top dose activation (PINK1 increase), usual class: activators; active = well fitted activation curve with a large enough effect; inconclusive = small, poorly fitted or top-dose-only effect; inactive = flat fitted curve, though single readings scatter; cell line not stated here;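 further: potency means the concentration at half of the fitted maximal effect; % of control where 0% means no effect; nearly all actives have a fitted effect of over 65% in size; a mitochondrial uncoupler was the plate control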
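Decision-based qHTS: stable cells, 24 h exposure to five compound concentrations, CCCP as control. Fixed cells stained for PINK1 plus nuclear, mitochondrial and cell markers, cytometer read.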
The depositor's hits bear a star; ? = inconclusive; . = no result given; [ ] = another dose, or the depositor's remark.

SMILES	TRPML1 agonist	D2 PAM	TRPML1 blocker	D2 agonist	Six1-Eya2 blk	PINK1 modulator
Cc1ccccc1OCCC(=O)OCC(=O)NC1CCS(=O)(=O)C1 (configuration not stated)	-1.0	12.0	2.6	0.0	4.3	0.2%
CNC(=O)c1cccc(NC(=O)c2cc(-c3ccccc3)nc3c2cnn3C(C)C)c1	2.9	1.0	8.5	-1.2	-0.8	1.7%
Cc1ccc(C(C)C)c(OCCCn2ccnc2C)c1	-1.1	-25.8	-7.9	-5.8	-21.4	19.2%
Cc1ccc(CNC(=O)CN2C(=O)COc3ccc(S(=O)(=O)N4CCC(C)CC4)cc32)o1	1.8	-1.2	10.2	8.6	1.3	6.3%
CSCCC(NC(=O)c1ccc(C(C)(C)C)cc1)C(=O)OCC(=O)N1CCCC1=O (configuration not stated)	-0.5	-0.8	-6.6	-2.4	0.5	-1.1%
O=c1cc2n(c(=O)[nH]1)CCC1=C2CCCC1	1.2	-13.9	16.3	-0.2	-2.1	-0.1%
Cc1c(C(=O)O)sc2nc(SCC(=O)Nc3ccc(S(=O)(=O)NCCCC(=O)O)cc3)[nH]c(=O)c12	0.0	-7.2	4.8	-4.3	-11.1	-1.8%
COC(=O)c1c(-c2ccc(Br)cc2)csc1NC(=O)Cc1ccc(OC)c(OC)c1	1.4	-3.2	20.5	0.6	-19.6	-1.3%
CCN(CC)C(=O)Cc1ccccc1	-0.5	-4.5	-4.6	-5.2	28.4	1.4%
CN1CCN(C(=O)CC2C(=O)NCCN2Cc2ccc(-c3ccccc3)cc2)CC1 (configuration not stated)	-0.2	-4.9	15.7	0.2	-1.2	0.1%
CCOC(=O)C1CCN(S(=O)(=O)c2ccc(Cl)s2)CC1	0.4	-1.1	-3.6	-2.1	9.9	-1.7%
Cc1ccc(Cl)cc1NC(=O)N1CCc2cc(S(=O)(=O)N3CCC(C)CC3)ccc21	-0.2	.	4.8	.	.	-0.5%
CCOc1ccc(CCNC(=O)c2cccc(N3CCCC3=O)c2)cc1OCC	0.5	6.1	2.2	-1.8	8.0	1.1%
C/C(Cl)=C\Cn1c(Nc2ccc(C)cc2)nc2c1c(=O)n(C)c(=O)n2C	-0.2	5.3	-6.5	-0.4	-6.0	1.4%
COc1cc(/C=N/n2c(-c3n[nH]c4c3CCC4)n[nH]c2=S)cc(OC)c1O	-0.1	5.5	-17.6	0.4	-6.0	1.0%
O=C(Nc1nnc(-c2ccco2)s1)c1ccccc1	1.5	3.9	2.3	3.6	0.4	17.1%[38.3 µM]
COc1ccc(OC)c(S(N)(=O)=O)c1	0.0	-13.7	10.0	1.0	7.8	-3.1%[38.3 µM]
Cc1n[nH]c(C)c1S(=O)(=O)N1CCN(S(=O)(=O)c2ccccc2C#N)CC1	-0.7	-4.5	2.6	-4.5	4.3	2.6%
CC1(C(=O)NS(=O)(=O)c2ccc(C#N)cc2)CCN1C(=O)c1cccc(F)c1 (configuration not stated)	-0.2	-4.3	.	-4.2	11.3	0.6%
COc1ccc(C(=O)NCC(=O)N=Nc2c(O)n(Cc3ccccc3)c3ccccc23)cc1OC	1.6	1.4	8.8	0.3	-23.5	9.0%
CCCCCCCCN1C(=O)[C@H](CC(=O)N2CCCCC2)C[C@@]2(C(=O)OC)CCCCC=C12	-1.0	.	.	.	-0.3	14.7%
COc1cc(OC)cc(-c2n[nH]c(=S)n2-c2ccc3c(c2)OCO3)c1	0.0	0.1	0.7	1.9	-1.5	-2.6%
Cc1cc(C)c(NN=c2c(=O)c3ccccc3c2=O)c(C)c1	-0.2	-27.9	-1.7	-5.3	-6.3	0.9%
CCOc1ccc(NS(=O)(=O)c2ccc(C(=O)NCC3(N(C)C)CCCCC3)cc2)cc1	19.2	-8.3	-0.9	-1.1	1.4	4.5%
COc1cc(SC)ccc1C(=O)Nc1ccc(S(=O)(=O)N2CCCC2)cc1	0.5	-4.2	45.9	-0.4	-1.1	3.5%
Cc1ccc2c(CC(=O)Nc3c(C)n(C)n(-c4ccccc4)c3=O)coc2c1	0.2	-8.3	4.1	-1.0	1.3	-1.5%
Cc1ccc(S(=O)(=O)N2CCC(C)CC2)cc1C(=O)NCCN1CCOCC1	-0.7	-2.6	3.9	1.7	3.6	2.1%
CCCCSc1nc(N)c(NC(=O)c2ccco2)c(=O)[nH]1	0.1	-3.0	-3.4	-2.9	5.6	1.3%
CC1=Nn2c(nnc2-c2ccccc2F)SC1	0.0	-3.8	5.9	0.0	2.5	-1.3%
CC(C)CC(C(=O)OCC(=O)Nc1cccc(Cl)c1)N1C(=O)C2CC=CCC2C1=O (configuration not stated)	1.4	-4.4	0.7	-0.8	2.5	1.9%
CC(=O)c1sc(NC(=O)c2ccc(F)c(F)c2)nc1C	-0.2	-7.0	37.1	-3.3	0.4	7.4%[38.3 µM]
COc1ccc(C=C(C#N)c2ccc(OC)cc2)cc1	1.5	4.1	28.1	-1.5	26.6	3.6%
Clc1ccccc1C=NNc1ccccn1	0.6	-13.5	-20.4	1.7	7.4	-3.8%
COc1ccc(-c2cccc(NS(=O)(=O)c3cc(C)ccc3OC)c2)nn1	1.2	.	33.2	.	.	2.4%
c1ccc(C2=Nn3c(nnc3-c3ccco3)SC2)cc1	-0.5	-12.7	-3.3	-3.4	?	0.0%
CCSc1nc2c(c(=O)[nH]1)C(c1ccccn1)C1=C(CC(C)(C)CC1=O)N2 (configuration not stated)	-0.6	-3.6	4.2	-2.6	5.7	0.5%
Cc1cccc(NC(=O)CN2CCN(CC(=O)NCC3(N4CCCCC4)CCCCC3)CC2)c1C	-0.2	-34.6	-9.7	-5.8	3.7	5.8%
CC1(C)CC(=O)CC(C)(C)N1OC(=O)c1ccccn1	-0.5	-7.7	11.2	-0.7	-8.9	2.8%
COc1cccc(CNCc2ccc(OC)cc2OC)c1	0.1	-5.1	-0.6	2.9	1.4	-1.4%
Cc1cc(N2C(=O)c3ccc(C(=O)Nc4ccc(O)cc4C(=O)O)cc3C2=O)no1	-0.1	-4.3	1.1	2.8	-2.3	-1.4%
Cc1cccc(N(CC(=O)Nc2ccccc2-c2ccccc2)S(=O)(=O)c2ccccc2)c1C	2.5	-1.2	69.9	1.2	-1.0	1.3%
COCCc1ncc(CN2CCC(C(=O)Nc3ccc(-n4cccn4)cc3)CC2)cn1	0.5	-12.9	-2.1	-3.3	-0.9	-1.5%
C/C(CC(=O)Nc1ccc(Cl)cc1C(F)(F)F)=N\NC(=O)c1ccccn1	-0.2	-2.6	13.7	-3.1	-15.8	-0.3%
C[C@]12c3[nH]c4ccccc4c3CCN1C(=O)C(CC(=O)NCC13CC4CC(CC(C4)C1)C3)C[C@@H]2C(=O)N1CCOCC1 (some centres not stated)	7.7	.	0.6	-3.0	-5.5	1.3%
COc1cccc(C(=O)Nc2nnc(S(=O)(=O)N3CCCCC3)s2)c1	1.1	-0.7	8.5	-3.9	-1.7	1.9%
Cc1ccc(C(=O)CC2(O)C(=O)N(Cc3ccccc3)c3ccccc32)o1 (configuration not stated)	-0.5	-0.2	-2.6	-1.1	6.7	2.8%
CCOC(=O)c1cnc(SCC(=O)N2CCN(C(=O)c3ccco3)CC2)nc1N	-0.6	10.1	-6.7	0.4	-0.1	1.3%[38.3 µM]
CC(C)SCC(=O)Nc1ncc2c(n1)-c1ccccc1CC2	5.4	23.4	-12.9	12.7	15.4	0.2%
O=C(CCC(=O)c1cccs1)OCC(=O)c1ccccc1	0.5	-9.2	-2.1	-2.8	23.6	-1.5%
Cc1cc(NC(=S)N(CCCN2CCOCC2)Cc2ccco2)ccc1Cl	-0.7	-13.9	6.1	1.0	-4.9	-0.9%
COc1ccc(C(C)(C)C)cc1S(=O)(=O)N1CCC(C(N)=O)CC1	0.1	-8.2	12.7	-1.6	4.2	0.8%
O=C1CCc2nc3ccccc3c(=O)n2N1	0.8	-4.8	9.4	0.9	-1.9	3.0%

An excerpt from above in order of molar mass, high to low:
SMILES	TRPML1 agonist	D2 PAM	TRPML1 blocker	D2 agonist	Six1-Eya2 blk	PINK1 modulator
Cc1cccc(NC(=O)CN2CCN(CC(=O)NCC3(N4CCCCC4)CCCCC3)CC2)c1C	-0.2	-34.6	-9.7	-5.8	3.7	5.8%
Cc1ccc(Cl)cc1NC(=O)N1CCc2cc(S(=O)(=O)N3CCC(C)CC3)ccc21	-0.2	.	4.8	.	.	-0.5%
CC(C)CC(C(=O)OCC(=O)Nc1cccc(Cl)c1)N1C(=O)C2CC=CCC2C1=O (configuration not stated)	1.4	-4.4	0.7	-0.8	2.5	1.9%
C/C(CC(=O)Nc1ccc(Cl)cc1C(F)(F)F)=N\NC(=O)c1ccccn1	-0.2	-2.6	13.7	-3.1	-15.8	-0.3%
O=C(CCC(=O)c1cccs1)OCC(=O)c1ccccc1	0.5	-9.2	-2.1	-2.8	23.6	-1.5%
CC(=O)c1sc(NC(=O)c2ccc(F)c(F)c2)nc1C	-0.2	-7.0	37.1	-3.3	0.4	7.4%[38.3 µM]
Cc1cc(C)c(NN=c2c(=O)c3ccccc3c2=O)c(C)c1	-0.2	-27.9	-1.7	-5.3	-6.3	0.9%
